2A firefly – lowers the firefly signal of an FMDV 2A StopGo reporter | hit rate 0.23% among 120,000 | Potency, µM (highest dose often 57.5 µM), for the others: top-dose signal change, negative = less light | HEK cells with a luciferase reporter of 2A StopGo recoding; active = well fitted falling curve with a large enough effect; inconclusive = small, poorly fitted or top-dose-only effect; inactive = no such curve, though single readings can be large or run the other way; also: nearly all actives have a fitted effect of over 60% in size; overnight with compound
StopGo RLuc – FMDV 2A StopGo reporter, Renilla signal | Potency, µM (top dose mostly 57.5 µM), inactives show at the highest dose signal change, negative = less light | AID 1745857 | HEK cells with a luciferase reporter of 2A StopGo recoding | hit rate 0.32% among 120,000; active means well fitted falling curve with a large enough effect; inconclusive means small, poorly fitted or top-dose-only effect; inactive means no such curve, though single readings can be large or run the other way; also: nearly all actives have a fitted effect of over 55% in size; overnight with compound
* marks the source's active call; other numbers are inactive results; ? = inconclusive; & = joins results of further samples; [ ] = dose if it differs, or a comment. % is scaled to controls: 0 for no effect and ±100 for the full control effect; potency is read from the fitted curve at half-maximal effect.

compound | 2A firefly | StopGo RLuc
COc1ccccc1/C=C/C=C1\Oc2cc(OC(=O)C(C)(C)C)ccc2C1=O | 40%[activator] | 22%
O=C(CSc1cc(Cl)ccc1Cl)N1CCN(C(=O)c2cccs2)CC1 | -1% | 0%
Cc1ccc(-c2c3c(=O)n(C)c(=O)n(C)c3c3n2-c2ccccc2NC3c2ccc(C)cc2O)cc1 (stereo not given) | 26% | -8%
Cc1c(Cl)cccc1NC(=O)CN1C(=O)COc2ccc(S(=O)(=O)Nc3ccccc3)cc21 | -22% | 0%
CCCC(=O)NC1CCN(c2ccccc2S(=O)(=O)C(F)(F)F)CC1 | -8% | -7%
COc1ccc(-c2c(NC(=O)c3ccc([N+](=O)[O-])cc3)oc3c(C)cccc3c2=O)cc1 | -11% | -15%
Cc1nnc(NC(=O)CN2CCN(c3cccc(C)c3C)CC2)s1 | 6% | 2%
Cc1ccc(C)c(-c2csc(NC(=O)c3cc(C)no3)n2)c1 | 28% | 6%
Cc1nc2ccn(Cc3ccco3)c(=O)c2cc1C(=O)NCc1ccc(Cl)cc1 | -22% | -3%
CC(C)CNc1ncnc2c1sc1nc(C(C)C)c3c(c12)CC(C)(C)OC3 | 13% | 15%
COc1ccc(CNC(=O)c2cccc(OCc3ccccc3)c2)cc1 | 21% | 19%
Cc1cc(NC(=O)CCc2ncc(-c3ccccc3F)o2)no1 | 19% | -2%
CN(Cc1ccccc1)C(=O)c1cccc(-c2cnc3ccccc3c2)c1 | 41%[activator] | 75%[activator]
CC1(C(=O)NCc2ccc(F)cc2)CN(S(C)(=O)=O)CC(=O)N1Cc1ccc2c(c1)OCO2 (stereo not given) | -5% | 27%
O=C(Nc1nccs1)c1csc(NC2CCCC2)n1 | 144%[activator] | -14%

Carrying on.
compound | 2A firefly | StopGo RLuc
Cn1ncc2nc(SCC(=O)Nc3ccc(Br)cc3F)n(Cc3ccccc3)c(=O)c21 | -12% | -10%
CCOc1ccc(N2C(=O)c3ccccc3NC23CCSC3)cc1 (stereo not given) | 9% | -20%
Cc1noc(C(C)N2CCN(C(=O)C(c3ccccc3)c3ccccc3)CC2)n1 (stereo not given) | 4% | -2%
CC1CCCN(c2ccc(C=O)cc2)C1 (stereo not given) | 6% | -23%
CCCn1nnnc1CN1CCCC1c1ccc(OC)c(OC)c1 (stereo not given) | 1% | 5%
CCCCCOc1ccc(C(N)C(=O)OCC)cc1 (stereo not given) | 60%[activator] | 26%
COc1cc(C(=O)Nc2ccc(NC(=O)c3ccc(Br)cc3)cc2)cc(OC)c1OC | -6% | -10%
N#CC1=C(N)N(c2cccc(F)c2)C2=C(C(=O)OC2)C12C(=O)N(Cc1cccc(F)c1)c1ccccc12 (stereo not given) | -16% | -7%
O=C(CN1CCOCC1)Nc1c(-c2ccccc2)c2cc(Br)ccc2[nH]c1=O | -6% | -6%
CCOc1ccc(S(=O)(=O)Nc2ccc3c(c2)N(C(C)=O)CCC3)cc1 | 0% | 0%
Nn1c(SC(C(=O)N2CCCC2)c2ccccc2)nnc1-c1cc(Cl)ccc1Cl (stereo not given) | 4% | 7%
COc1ccccc1Oc1coc2cc(OCc3ccccc3Cl)ccc2c1=O | 77%[activator] | 8%
Cc1ccc(/C=N/NC(=O)c2cccc(Br)c2)s1 | 251%[activator] | 41%[activator]
O=C(Cn1nc(Br)nc1Br)c1ccc(Cl)cc1 | 0% | 18%
Cc1oc(-c2ccc(C(=O)NCc3ccccc3F)cc2)nc1COc1ccccc1 | ? | ?

Part of the list above in order of SMILES length, descending.
compound | 2A firefly | StopGo RLuc
Cc1oc(-c2ccc(C(=O)NCc3ccccc3F)cc2)nc1COc1ccccc1 | ? | ?
Cc1ccc(C)c(-c2csc(NC(=O)c3cc(C)no3)n2)c1 | 28% | 6%
Cc1cc(NC(=O)CCc2ncc(-c3ccccc3F)o2)no1 | 19% | -2%

Carrying on:
compound | 2A firefly | StopGo RLuc
CCOC(=O)C(NC(=O)c1cccnc1)(Nc1cc(Cl)ccc1OC)C(F)(F)F (stereo not given) | 13% | 31%[activator]
O=C(CSc1nnc(Cc2cc(=O)[nH]c(=O)[nH]2)n1-c1ccc(F)cc1)c1ccccc1 | -7% | -15%
CC(C)Oc1cccc(C(=O)Nc2ccc3oc(-c4cccc(Cl)c4)nc3c2)c1 | -5% | -7%
CCc1ccc(OCC(=O)NC(c2ccccc2)c2cccs2)cc1 (stereo not given) | 22% | -1%
Cc1c(CC(=O)Nc2ccc(C(C)(C)C)cc2)c(=O)oc2cc(O)ccc12 | 11% | 13%
O=S(=O)(O)CC(O)CNC(CO)(CO)CO (stereo not given) | ? | ?
O=C(Cn1nnc(-c2ccc(F)cc2)n1)c1ccccc1 | 120%[activator] | 16%
CCN(CC)c1nn2c(=O)c(C(=O)NCc3ccccc3Br)cnc2s1 | -15% | -11%
Cc1ccc(Nc2nc(-c3ccc4[nH]c(=O)oc4c3)cs2)cc1F | 48%[activator] | 51%[activator]
COc1cc2oc(=O)c(CC(=O)N3CCCC3)c(C)c2cc1OC | 7% | 3%
NC(=O)c1ccc(NC(=O)CCc2ncc(-c3ccc(F)cc3F)o2)cc1 | 0% | 64%[activator]
Fc1ccc(Nc2nc3nonc3nc2N2CCC(Cc3ccccc3)CC2)cc1 | ? | ?
O=C(Nc1nc(-c2cc3ccccc3oc2=O)cs1)c1ccc(Cl)cc1 | -6% | -12%
COc1ccc(CNC(=O)c2ccc(-c3nc(CS(=O)c4ccc(C)cc4)c(C)o3)cc2)cc1 (stereo not given) | 47% | 55%[activator]
Cn1cc(C(=O)C(=O)NC2CCCCC2)c2ccccc21 | 155%[activator] | 0%

New compounds follow:
compound | 2A firefly | StopGo RLuc
CCOc1ccc(-c2nnc(N3CCCCC3)c3ccccc23)cc1 | 11% | 8%
COCC(C)Nc1ncnc2c1cnn2-c1cccc(Cl)c1 (stereo not given) | 222%[activator] | 3%
Cc1ccc(CCNC(=O)CCN2N=C(c3ccc(C)cc3)CCC2=O)cc1 | -16% | -10%
Cc1ccccc1C(=O)Nc1ccccc1N1CCOCC1 | -4% | -4%
N#CCOc1ccc2[nH]cc(C(C(=O)O)N3CCN(Cc4ccncc4)CC3)c2c1 (stereo not given) | -14% | -21%
Cc1cc(C2=NNC(=NC3CCCCC3)SC2)c(C)n1C1CC1 | 73%[activator] | -20%
Cc1cccc(C(=O)Oc2cccc(NC(=O)Cc3nn(C)c(=O)c4ccccc34)c2)c1 | 15% | 9%
CC(C)(C)C(=O)Cc1[nH]c2cc(Cl)ccc2c1C(C)(C)C | 7% | 9%
CSc1ccccc1NC(=O)C1CCCN(S(C)(=O)=O)C1 (stereo not given) | 11% | 18%
CCOC(=O)c1c(C)oc2nc(C)nc(NCc3cccc(OC)c3)c12 | 28%&-11% | 9%&-10%
COc1ccc(C(=O)COC(=O)C2C3CC4C(OC(=O)C42)C3Br)cc1 (stereo not given) | 160%[activator] | 30%[activator]
CCOc1ccc(Nc2cc(C)nc3nncn23)cc1 | 7% | 12%
CC(=O)NC(C(=O)O)=C(Cl)Cl | 2% | 1%
CCOC(=O)/C(=C/c1ccc(Cl)s1)c1nccn1C | 8% | -4%
CCOc1ccc(S(=O)(=O)N2CCN(c3ccc(C)c(Cl)c3)CC2)c2ccccc12 | -2% | 50%[activator]

New compounds follow.
compound | 2A firefly | StopGo RLuc
Cc1ccc(CS(=O)Cc2ccc(F)cc2)cc1 (stereo not given) | 10% | 2%
O=C(Cc1ccccc1)Nc1ccc2oc(-c3cccc(Cl)c3)nc2c1 | 27% | -4%
CC(C)(C)c1ccc(OCCn2cc(C(=O)C3CCCCC3)c3ccccc32)cc1 | ? | -2%
Cc1ccc(CNC(=O)Cc2csc3ccccc23)cc1 | 143%[activator] | 21%
Cn1cnc2c1c(=O)[nH]c(=O)n2C | -22% | -14%
CCN(CC)CCSc1nnc2c3cc(F)ccc3n(CC)c2n1 | 1% | -5%
Cc1cccc(OCC(=O)NCC2(N3CCN(C)CC3)CCCCC2)c1C | -16% | -19%
CC(=O)Nc1ccc(NC(=O)c2cc(-c3cccs3)on2)cc1 | 1% | -11%
CCOc1ccc(Nc2nc(C)c(NC(=O)c3ccc(C)cc3)c(Nc3ccc(OCC)cc3)n2)cc1 | 2% | 1%
CCN(CC)Cc1ccc(CNC(=O)Cc2c[nH]c3ccccc23)cc1 | -3% | -9%
CCN(CC)CCNC(=O)CCc1c(C)nc2c(c1C)c(=O)n(C)c(=O)n2C | -12% | -11%
O=C(NCc1ccc(F)cc1)c1cc2c(s1)-c1ccccc1SC2 | 26% | -2%
COC(=O)Nc1ccc(C(=O)OC(C)C)cc1 | 129%[activator] | 23%
COc1ccc(CNC(=O)Cn2c(SCC(=O)Nc3ccc(C)c(C)c3)nc3ccccc32)cc1 | 0% | -17%
COc1ccccc1CNC(=O)C(C)n1ccc2cc(S(=O)(=O)N3CCCC3)ccc21 (stereo not given) | -4% | 29%

Full records as entered above. Screens in order: 2A firefly, StopGo RLuc
Record of Cn1cnc2c1c(=O)[nH]c(=O)n2C = -22%, -14%
Record of CC(=O)Nc1ccc(NC(=O)c2cc(-c3cccs3)on2)cc1 = 1%, -11%
Record of COc1ccc(CNC(=O)Cn2c(SCC(=O)Nc3ccc(C)c(C)c3)nc3ccccc32)cc1 = 0%, -17%
Record of Cc1cccc(OCC(=O)NCC2(N3CCN(C)CC3)CCCCC2)c1C = -16%, -19%

(next part)
compound | 2A firefly | StopGo RLuc
COc1cc(NC(=O)CCc2nc(-c3cccs3)no2)cc(OC)c1OC | 6% | 4%
O=C(CN1C(=O)COc2ccc(S(=O)(=O)N3CCCCCC3)cc21)N1CCN(c2ccccc2F)CC1 | 2% | 3%
Cc1ccc(C)c(N2CCN(S(=O)(=O)c3cc(-c4cc(C)no4)ccc3C)CC2)c1 | -9% | 4%
CCc1ccc(NC(=O)Cn2c(-c3ccc(F)cc3)cc(C(C)=O)c2C)cc1 | -4% | -15%
Cc1cccc(-n2c(=O)c3c(c4cc(C)ccc4n3C)n(CC(=O)NCC3CCCO3)c2=O)c1 (stereo not given) | -16% | -10%
CC(NS(=O)(=O)c1ccsc1C(=O)O)C1CCCO1 (stereo not given) | 25% | 14%
Cn1c(=O)[nH]c(=O)c2c1nc(N1CCCCC1)n2CCSc1ncccn1 | 15% | 4%
CCc1ccc2oc(C(=O)Nc3ccc(OC)cc3)cc(=O)c2c1 | -4% | -1%
Cc1cccc(CNC(=O)c2ccc(NC(=O)N3CCSc4ccccc43)cc2)c1 | -2% | 5%
CCCC(=O)Nc1ccccc1C(C)CC (stereo not given) | 7% | 15%
COc1ccc(-c2noc(CNC(=O)c3cc4cccc(OC)c4o3)n2)cc1 | -2% | 12%
Cn1c(=O)[nH]c(=O)c2c1nc(N1CCN(Cc3cccc(Cl)c3)CC1)n2CCCc1ccccc1 | -7% | -10%
N#C/C(=C/c1ccc(O)c(Br)c1)C(=O)Nc1ccccc1C(F)(F)F | ? | -13%[1.06 µM]
COc1ccccc1OCc1nc(C#N)c(NCc2ccc(C)cc2)o1 | 19% | 5%
COCCn1cnnc1SCCOc1ccc(Cl)cc1 | 0% | 10%

(further entries)
compound | 2A firefly | StopGo RLuc
COC(=O)c1c(C)[nH]c(-c2ccccc2F)c1C1C(=O)Nc2ccccc21 (stereo not given) | -4% | 8%
Cc1ccc(S(=O)(=O)C(CC(=O)c2ccccc2)c2ccc(Cl)cc2)cc1 (stereo not given) | 18% | 13%
COC(=O)c1ccccc1NC(=O)c1cc(N2CCCCS2(=O)=O)ccc1Cl | 6% | 47%[activator]
CN(C)c1oc(-c2ccco2)nc1S(=O)(=O)c1ccc(Cl)cc1 | 3% | 132%[activator]
C=C(C)C1CCC(C)=C1CC/C(C)=N\NC(N)=O (stereo not given) | 0% | -4%
CCCC12CN3CC(C)(CN(C1)C3c1ccc(OCc3ccccc3)cc1)C2=O (stereo not given) | -7% | -11%
Cc1cccc(C(=O)/C=C\N(C)C)c1 | 102%[activator] | -10%
N#Cc1cccnc1NCCC12CC3CC(CC(C3)C1)C2 | 28% | 3%
CN(C)C(=O)c1cc(F)cc(F)c1 | -5% | 2%
O=C(O)CNS(=O)(=O)c1ccc(I)cc1 | ? | 34%[activator]
COCCn1c(SC(C)C(=O)c2ccc(OC)cc2)nnc1-c1ccc(Cl)cc1 (stereo not given) | 1% | 75%[activator]
Nc1nc2c(s1)C(c1ccccc1OCc1ccccc1Cl)CC(=O)N2 (stereo not given) | -11% | -8%
COc1ccccc1NC(=O)c1sc2cccc(Cl)c2c1Cl | 8% | ?
Cn1nc(C(C)(C)C)cc1NC(=O)c1ccccc1 | 3% | -2%
CN(C)C(=O)c1cccc(NC(=O)/C=C/c2ccccc2)c1 | 0% | 20%

(listing goes on)
compound | 2A firefly | StopGo RLuc
CC(C)N(Cc1ccccc1)C(=O)COC(=O)c1c(F)cccc1F | -5% | -11%
Cc1ccc2onc(CC(=O)N3CCN(c4ccccc4)CC3)c2c1 | 2% | -4%
CCc1ccccc1NC(=O)N1CCc2cc(OC)c(OC)cc2C1CC(=O)OC (stereo not given) | 20% | 10%
Cc1ccc(-c2nn(CC(=O)NC3CCCCC3)c3c2cnc2ccc(F)cc23)cc1C | -4% | -18%
CN1Cc2nnn(Cc3ccccc3)c2-c2cc(N3CCCCC3)ccc2S1(=O)=O | -20% | 0%
O=C(CCS(=O)(=O)c1nc(-c2ccc3c(c2)OCO3)cc(C(F)(F)F)n1)Nc1ccc(F)cc1F | 17% | 0%
O=C(Nc1sc2c(c1C(=O)Nc1ccccc1Cl)CCCC2)c1ccccc1F | 9% | -7%
O=C(c1ccc(F)cc1)c1cn(Cc2ccccc2)c2cc3c(cc2c1=O)OCO3 | 2% | -6%
COc1ccc(S(=O)(=O)N(CC(=O)N2CCC(C)CC2)c2ccc(C)cc2)cc1 | 12% | 310%[activator]

Only part of the results is shown; count on the stated rates, not on these rows.
